# MgrA DNA FP: alters Staphylococcus aureus MgrA binding to DNA. fluorescence polarization. inhibition, %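 (about 10 µg/mL by stock and volumes)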. 84,000 compounds, 0.13% hits. AID 602314;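 active = above 50% in either of two replicates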;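 note: 0% = protein plus DNA without compound and 100% = DNA alone without protein; higher means less MgrA bound to DNA so lower polarization; one replicate is shown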
# S aureus helic: S. aureus DNA helicase inhibition; purified S. aureus helicase, fluorescence unwinding assay; about half of the hits fall short of the stated cut; inhibition, %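 (tested at about 80 µM)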; 120,000 compounds, 0.05% hits;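 active = both duplicates at 50% or more, or one of them with a favoured structure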;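 note: 0% = mean of negative control wells and 100% = mean of positive control wells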
# The depositor's hits bear a star; / = no result given; & = joins results of further samples. This is a subset; the hit share may differ from the screen's.
entry	compound	S aureus helic	MgrA DNA FP
1	CN(C(=O)c1cc2c(s1)-c1ccccc1S(=O)(=O)C2)c1ccccc1	9.0	2.0
2	Cc1nc(Sc2nnc3sc4ccccc4n23)c2c3c(sc2n1)CCC3	-12.0	/
3	Cc1ccc(-n2nc(C(=O)O)c(C)c(C#N)c2=O)cc1C	-19.0	0.0
4	c1ccc(-c2nnnn2CCOCCn2nnnc2-c2ccccc2)cc1	-10.0	/
5	COCC(C)N=C1NN=C(c2c[nH]c3ccccc23)CS1 (stereo not drawn)	-5.0	/
6	COc1ccc(N2CCN(CC(=O)N(C)C)CC2)cc1	-1.0	-3.0
7	CN(C)S(=O)(=O)c1cccc(C(=O)N2C(=O)c3cccc(N)c3C2=O)c1	-8.0	/
8	COc1cc(-c2nc3ccccn3c2/N=C/c2sccc2C)ccc1O	9.0	-0.5
9	COc1ccc(S(N)(=O)=O)cc1C(=O)OCc1nc2ccccc2s1	3.0	/
10	O=C(NC1CCCC1)C1CCCN1S(=O)(=O)c1cccc2cccnc12 (stereo not drawn)	7.0	0.0
11	O=C(Cn1c(=O)c2ccccc2n(CC(=O)Nc2ccc(Br)cc2)c1=O)NCc1ccco1	-21.0	/
12	CCc1ccc(-c2csc(NC(=O)CCC(=O)N3CCN(C(C)=O)CC3)n2)cc1	3.0	/
13	N#Cc1c(O)c2ccccc2[nH]c1=O	-14.0	/
14	OCC#CCSc1nc2ccccc2s1	5.0	3.4
15	C/C=C1\NC(=S)N(c2ccccc2)C1=O	24.0	/
16	O=C(O)CCCCC1CCSS1 (stereo not drawn)	/	0.5
17	COC(=O)CCS(=O)(=O)c1cccc2c(S(=O)(=O)CCC(=O)OC)cccc12	0.0	3.4
18	c1ccc(N2CCN(c3ncnc4sccc34)CC2)nc1	-1.0	/
19	CSC1=NCCN1S(=O)(=O)c1ccccc1	8.0	/
20	O=C(/C=C1\SCC(=O)N1c1ccccc1)c1ccc(Cl)cc1	/	-1.1
21	O=C(NCCN1CCOCC1)c1ccc(I)cc1	0.0	0.6
22	CCN(CC)CCSc1nc2ccccc2n1Cc1ccccc1	-23.0	/
23	CCOc1ccc(/C=C(\C#N)C(N)=C(C#N)C#N)cc1	-36.0	/
24	COc1ccc(/C=N/C2=NNC(=O)C(CC(=O)O)S2)cc1 (stereo not drawn)	-2.0	-1.3
25	Cn1[nH]c(=O)c2ccccc2c1=O	/	2.6
26	CNC12CC3CC(CC(S)(C3)C1)C2	7.0	1.0
27	COC(=O)c1ccccc1NC(=O)NC(C)(C)C	8.0	1.0
28	Cc1ccc(C)c(C(=O)N2CCC(c3nc4c(nnn4Cc4ccc(F)cc4F)c(=O)[nH]3)CC2)c1	3.0	/
29	CN(Cc1ccco1)C(=O)c1ccc2c(c1)N(Cc1cccc(F)c1)C(=O)c1ccccc1S2	4.0	11.4
30	COc1ccccc1NC(=O)CCSc1cccc2cccnc12	5.0	2.8
31	O=C(CSc1c(-c2ccccc2)[nH]c2ccccc12)N1CCCC1	10.0	/
32	Cc1nn(-c2ccccc2)c2sc(C(=O)OCC(=O)N3CCCC3)cc12	10.0	/
33	O=C(CSC1CCCC1)Nc1ccccc1Br	16.0	-1.0
34	Cc1ccc(OC(C)C(=O)NC(C)(C#N)C(C)C)cc1 (stereo not drawn)	23.0	/
35	c1ccc(-c2nnc(CSc3nnc4n3CCCCC4)o2)cc1	19.0	/
36	Cn1ncc(S(=O)(=O)Cc2ccccc2)c(Cl)c1=O	17.0	/
37	c1ccc(C2SCCN2c2ccccc2)cc1 (stereo not drawn)	-6.0	1.2
38	N#CCSc1ccc(F)cc1	/	-1.7
39	COc1ccccc1Nc1nc2ccccc2s1	-14.0	-2.1
40	COc1ccc(CC(=O)N2CCN(c3ccccc3OC)CC2)cc1	-1.0	3.8
41	CCOC(=O)c1cnc2nc(SC)nn2c1N	/	1.4
42	CC(=O)Oc1c(-c2ccco2)oc2ccccc2c1=O	16.0	5.4
43	CCc1nn(-c2cc(Cl)ccc2OC)c2c1C(=O)CCC2	8.0	/
44	CCc1c(C(=O)OCc2ccccc2)[nH]c(C)c1C	/	-2.4
45	CCOc1ccc(N(CC(=O)NCCc2ccc(OC)c(OC)c2)S(=O)(=O)c2ccc(SC)cc2)cc1	/	-0.2
46	CC1CCCC(C)N1C(=O)COC(=O)c1ccc(S(=O)(=O)N2CCCC2)cc1 (stereo not drawn)	4.0	/
47	COCCN1C(=O)c2ccccc2C(C(=O)NCC2CCCO2)C1c1cccs1 (stereo not drawn)	-14.0	2.7
48	COc1ccc(Cl)cc1C(=O)NCc1ccco1	8.0	-0.4
49	CN(C)C=Nc1ncc2c([nH]c3ccccc32)c1C#N	-8.0	0.1
50	O=C(CSc1nnc(-c2ccccc2Br)o1)NC(=O)NC1CCCC1	1.0	/

# Continued.
entry	compound	S aureus helic	MgrA DNA FP
51	O=C(c1cn(-c2ccccc2)nc1-c1cccs1)N1CCN(c2ccccc2)CC1	-6.0	/
52	O=c1[nH]c(C2CC2)nc2c1CSCC2	/	2.1
53	COC(=O)c1sccc1Oc1ccc(C(F)(F)F)cc1N	/	0.3
54	CC1CCCC(C)N1CC(O)COCC1COc2ccccc2O1 (stereo not drawn)	-9.0	/
55	Cc1ccc(C)c(N2C(=O)c3ccc(C(=O)OCC#N)cc3C2=O)c1	-4.0	/
56	CCOc1cccc(OCC)c2c(C)[n+](C)c(C)c1-2	58.0*	8.2
57	Cc1c(C)c2ccc(OC(=O)c3cccs3)cc2oc1=O	1.0	2.0
58	COc1ccc(NS(=O)(=O)c2cccc(-c3nnc4n3CCCCC4)c2)cc1	-8.0	/
59	Cc1noc(C)c1CSc1nc2ccccc2c(=O)n1C(C)C	-4.0	/
60	CC(=O)NC(Cc1c[nH]c2ccccc12)C(=O)N1CCN(S(=O)(=O)c2ccccc2)CC1 (stereo not drawn)	-2.0	/
61	CCOC(=O)C1CCC(CNC(=O)NC(c2ccccc2)c2nnc(-c3ccccc3)o2)CC1 (stereo not drawn)	-12.0	/
62	CCn1c(=O)ccc2cc(OC)ccc21	3.0	-3.1
63	O=c1oc2ccccc2n1CCc1ccccc1	0.0	-3.8
64	O=C(O)c1cc(F)c(Cl)cc1Cl	/	-1.6
65	N#Cc1cccc(NS(=O)(=O)c2ccc(Cl)cc2)c1	/	2.1
66	c1ccc(-c2onc3ccc(-n4cccc4C4OCCO4)cc23)cc1	1.0	2.1
67	O=C(c1ccc(Cl)cc1)C(O)c1c[nH]c2ccccc12 (stereo not drawn)	-32.0	/
68	CC(OC(=O)c1ccccc1)C(=O)NCc1ccco1 (stereo not drawn)	-12.0	/
69	c1ccc2c(c1)CCN(Cc1ccsc1)C2	-10.0	0.9
70	CSC1=NCCN1C(=O)C12CC3CC(CC(C3)C1)C2	0.0	/
71	CCc1nn(CC(=O)O)c(=O)c2cc3ccccc3n12	-10.0	/
72	CCOC(=O)c1nn(-c2ccc(OC)cc2)c(=O)c2c(N)scc12	-2.0	0.5
73	Cc1onc(-c2ccccc2)c1CNC(=O)C1CC1	/	-1.0
74	CC(C)CC(C(=O)O)n1c(O)c(C2=c3cc(Br)ccc3=NC2=O)sc1=S (stereo not drawn)	/	0.2
75	COc1ccc(Nc2nc(NCCCC(C)C)nc(OC)n2)c(OC)c1	7.0	-0.3
76	CC1CCCCN1CCNc1ccc2nnc(-c3ccc(F)cc3)n2n1 (stereo not drawn)	-2.0	0.9
77	COc1cc(/C=c2/sc3nc4ccccc4n3c2=O)cc(Br)c1OC	/	-0.6
78	CC(C)(C)C(=O)Nc1ccc2nn(-c3ccccc3)nc2c1	8.0	-0.1
79	Cc1nn(C(=O)c2c(Cl)cccc2Cl)c(C)c1Cc1c(F)cccc1Cl	/	0.8
80	COc1ccc(Cn2nnnc2CN(Cc2cccs2)Cc2cc3ccc(OC)cc3[nH]c2=O)cc1	-3.0	1.2
81	CCOc1cc(/C=C2/C(=O)NC(=O)N(c3ccc(OC)cc3)C2=O)ccc1OCCBr	/	7.7
82	O=C(COC(=O)C1CCC1)c1ccc(F)cc1	-6.0	/
83	CN(C)C(=O)C[n+]1cccc(/C=N/O)c1	8.0	-4.5
84	CC(C)Cn1c(SCn2nnc3ccccc3c2=O)nnc1-c1ccco1	-2.0	/
85	COC(=O)N/N=C(\C)c1ccc2c(c1)Nc1ccccc1S2	8.0	/
86	Cc1ccc(SC(CC(=O)c2ccc(C)cc2)C(=O)O)cc1 (stereo not drawn)	/	0.2
87	Cc1ccc(-c2nc(SC3CC(=O)N(c4ccccc4)C3=O)n[nH]2)cc1 (stereo not drawn)	6.0	1.5
88	CCNS(=O)(=O)c1cc(-c2nnc(OC)c3ccccc23)ccc1C	10.0	-1.2
89	CCOC(=O)c1cnn(-c2ccc(N)cc2)c1C(F)(F)F	/	-1.4
90	C(=N\n1cnnc1)/c1cccc(/C=N/n2cnnc2)c1	18.0	-3.2
91	CCCSc1nnc2c(n1)OC(c1cccs1)Nc1ccccc1-2 (stereo not drawn)	/	-0.4
92	COc1ccc(CCN(C)S(=O)(=O)c2cn(C)c(=O)n(C)c2=O)cc1OC	12.0	/
93	CCCNC(=O)c1cc(CC(C)C)on1	3.0	-1.4
94	Cc1nc(C(F)(F)F)ccc1C(=O)N1CCSCC1	-18.0	/
95	COC(=O)c1c(NC(=S)NC(=O)c2ccccc2)sc2c1CCCC2	9.0	2.6
96	CCC(C#N)(c1ccccc1)c1ccc(N=Cc2cc(Cl)cc(Cl)c2O)cc1 (stereo not drawn)	/	-0.8
97	Cc1cc(Br)ccc1OCC(=O)N1CCc2ccccc21	-1.0	/
98	CC(=O)Oc1ccccc1C(=O)NCC1CCCO1 (stereo not drawn)	2.0	-5.5
99	Cc1cc(C)c(S(=O)(=O)N2CCN(C(=O)C3CC3)CC2)c(C)c1	-3.0	/
100	CCOc1ccc(-n2c(SCc3nc(N)nc(N)n3)nc3ccccc32)cc1	16.0	/

# The last two compounds of the section above open the next one.
entry	compound	S aureus helic	MgrA DNA FP
99	Cc1cc(C)c(S(=O)(=O)N2CCN(C(=O)C3CC3)CC2)c(C)c1	-3.0	/
100	CCOc1ccc(-n2c(SCc3nc(N)nc(N)n3)nc3ccccc32)cc1	16.0	/
101	CC1CN(C(=O)C23CC4CC(C)(CC(C)(C4)C2)C3)CC(C)O1 (stereo not drawn)	9.0	-2.2
102	FC(F)(F)c1cc(-c2nsc(N3CCOCC3)n2)cc(C(F)(F)F)c1	/	-0.3
103	Cc1cc(C)c2oc(-c3cc(NC(=O)COc4ccccc4C)ccc3Cl)nc2c1	10.0	0.9
104	C=CCOc1nnc(OCC=C)c2ccccc12	6.0	0.8
105	CC(C)(C)OC(=O)/C(C#N)=C/C1CCCCC1	-3.0	/
106	CCc1nn2c(=O)cc(COc3ccc(/C=C4\C(=O)NN(c5ccccc5)C4=O)cc3)nc2s1	-9.0	/
107	O=C1CCCC2=C1C(c1cccc(Cl)c1)n1c(nc3ccccc31)N2 (stereo not drawn)	6.0	0.5
108	CC(C)(C)OC(=O)N1CCN(C(=O)OC(C)(C)C)CC1	10.0	16.8
109	CN(Cc1cccs1)C(=O)CN1C(=O)C2CC=CCC2C1=O (stereo not drawn)	-13.0	/
110	COc1ccccc1NC(=O)[C@H](Cc1ccccc1)N1Cc2ccccc2C1=O	-8.0	-0.1
111	O=C(Nc1ccc2[nH]c(=O)[nH]c2c1)c1ccc2c(=O)n3c(nc2c1)CCCCC3	8.0	/
112	Cc1cc(-n2c(C)cc(C(=O)CSCc3ccccc3F)c2C)no1	1.0	/
113	C=CCn1c(C)cc(C(=O)CN2C(=O)NC(CCSC)C2=O)c1C (stereo not drawn)	8.0	/
114	CCOC(=O)c1cc(-c2ccccc2)on1	/	1.5
115	Cc1noc(C)c1CSc1cc(C)c2ccccc2n1	10.0	/
116	Cn1[nH]c(=O)cc1C(F)(F)F	/	1.1
117	CCOC(=O)c1nnn(-c2nonc2N)c1-c1ccccc1	-1.0	-0.4
118	COCC(C)NCc1ccc2ccccc2c1 (stereo not drawn)	11.0	-4.2
119	COc1ccc(C/C(C)=N/NC(N)=O)cc1OC	-18.0	/
120	CCOC(=O)C1=C(N)OC2=C(C(=O)CCC2)C1c1cccnc1 (stereo not drawn)	-13.0	2.2
121	CC(=O)Nc1ccc(Oc2cc(C#N)c(C#N)cc2N2CCOCC2)cc1	13.0	-1.6
122	O=c1ccnc(SCc2ccc(Cl)cc2)[nH]1	9.0	-2.8&1.1
123	CC(=O)OC1=CC(=O)CC(c2ccc(Cl)cc2)C1 (stereo not drawn)	/	1.2
124	CC(C)(C)c1cc(C(F)(F)F)c(C#N)c(SCC#N)n1	28.0	0.5
125	O=C(CCCc1nc(-c2ccccc2)no1)Nc1cccnc1	-22.0	/
126	Cc1ccc(-c2cc(C(=O)NCCN(C)C)c3cc(Br)ccc3n2)o1	15.0	-4.7
127	CC1=C(C#N)C(=O)NC(=O)/C1=C/c1ccc(-c2cccc(C(=O)O)c2)o1	-47.0	/
128	CC(C)(C)c1ccccc1OCCCCCn1ccnc1	3.0	/
129	CN(C)/C=C(\C#N)c1ccccn1	12.0	/
130	COc1ccc(CNC(C)c2ccccc2)cc1 (stereo not drawn)	-4.0	-0.9
131	O=C(OCc1ccccc1F)c1ccc(O)cc1	-19.0	-0.4
132	Cc1ccc(SCC(=O)Nc2ccc(F)c(F)c2F)cc1	/	0.2
133	COc1ccc(CN2CC(C(=O)NCCCN3CCC(C)CC3)CC2=O)cc1 (stereo not drawn)	-2.0	1.1
134	CCOC(=O)c1cc2c(c(CSc3ccc(C(F)(F)F)cn3)c1)OCOC2	/	-0.8

# An excerpt of these results, with the structure last:
No. | S aureus helic | MgrA DNA FP | canonical_smiles
112 | 1.0 | / | Cc1cc(-n2c(C)cc(C(=O)CSCc3ccccc3F)c2C)no1
35 | 19.0 | / | c1ccc(-c2nnc(CSc3nnc4n3CCCCC4)o2)cc1
15 | 24.0 | / | C/C=C1\NC(=S)N(c2ccccc2)C1=O
25 | / | 2.6 | Cn1[nH]c(=O)c2ccccc2c1=O
88 | 10.0 | -1.2 | CCNS(=O)(=O)c1cc(-c2nnc(OC)c3ccccc23)ccc1C
